Screening results as filed in PubChem BioAssay.
VDR inhibitor – Inhibitors of the vitamin D receptor (VDR): qHTS; Vitamin D3 receptor (Homo sapiens), P11473; VDR-SRC2-3 peptide fluorescence polarization, 2 h; Potency, µM, without a hit: max response, negative = inhibition, most hits filed as inhibitors; hit rate 0.93% among 400,000; active means well fitted inhibition curve with a large enough effect; inconclusive means small, poorly fitted or top-dose-only effect, or another doubt; inactive means no such curve, though single readings can be large or run the other way; further: series mostly up to about 120 µM
Target sequence (P11473 whole entry, looked up): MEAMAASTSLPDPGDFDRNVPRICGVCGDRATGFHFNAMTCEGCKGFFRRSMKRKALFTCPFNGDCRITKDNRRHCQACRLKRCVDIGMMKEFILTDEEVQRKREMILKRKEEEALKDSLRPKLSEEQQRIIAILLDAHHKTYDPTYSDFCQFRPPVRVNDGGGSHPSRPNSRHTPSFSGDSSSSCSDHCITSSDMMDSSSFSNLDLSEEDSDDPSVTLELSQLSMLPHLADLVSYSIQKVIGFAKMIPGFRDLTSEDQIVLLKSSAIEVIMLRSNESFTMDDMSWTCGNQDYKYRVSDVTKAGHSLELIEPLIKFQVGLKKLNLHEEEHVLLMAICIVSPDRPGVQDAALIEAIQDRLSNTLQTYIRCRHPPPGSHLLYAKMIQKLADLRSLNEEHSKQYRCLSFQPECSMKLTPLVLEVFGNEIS
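Reagent solutions, kept cold and dark, are dispensed first; compounds are then pinned in at 23 nl, plates briefly spun, and incubated 2 h at ambient temperature. Inhibition of VDR–SRC2-3 peptide binding is read by fluorescence polarization.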
Active calls of the source: *; ? = inconclusive; & = joins results of further samples. On the % scale 0 is the no-effect control and ±100 the full control effect; potency means the concentration at half of the fitted maximal effect. Only part of the results is shown; the hit share may differ from the screen's.

SMILES | VDR inhibitor
NS(=O)(=O)c1ccc(NC(CNS(=O)(=O)c2ccccc2)c2ccccc2)cc1 (configuration not stated) | 4%
CCC(C)NC(=O)c1nn(-c2ccc(C)cc2)nc1CO (configuration not stated) | 3%
COc1ccc(/C=C/C(=O)c2oc3ccc(F)cc3c2C)cc1 | -19%
CSc1ccc(CCNC(=O)CCCn2c(=O)c3cccn3c3ccccc32)cc1 | 11%
CCCCCOc1ccc(C2NC(=O)NC2=O)cc1 (configuration not stated) | 5%
COc1cccc(C(=O)O[C@H]2[C@H](C)NS(=O)(=O)[C@H]3C[C@@H]4C=C[C@]23O4)c1 | -21%
CC(C(=O)Nc1cccc([N+](=O)[O-])c1)n1nnc2ccccc21 (configuration not stated) | -3%
COCCn1c(SCC(=O)N2CCN(c3ccccc3)CC2)nc2c(c1=O)SC(C)C2 (configuration not stated) | -2%
CCCn1c(O)c2ccc(C(=O)N=NC(=O)c3cccnc3)cc2c1O | 13%
CCC1CC=CC2C1C(=O)N(Cc1ccccc1)C2c1ccoc1 (configuration not stated) | 79µM*
CCOC(=O)c1c(-c2ccco2)csc1N | -6%
CCOC(=O)CS(=O)(=O)c1ccc(O)cc1 | -1%
CCOc1ccc2nc(N3CCC(C(=O)N4CCN(c5ccccn5)CC4)CC3)sc2c1 | ?
COc1cc(/C=N/N2CCN(c3ccccc3)CC2)ccc1OC(C)=O | -2%
CCc1ccc2c(c1)C(=O)C[C@]1(CCC[C@H](C)C1)O2 | -6%
CCCCN(CC)CCNC(=O)c1cc2c(=O)n(CC)c3ccccc3c2s1 | 0%&-7%
CCCNC(=O)c1cc(S(=O)(=O)N2CCCCC2)ccc1N1CCOCC1 | -18%
CCC(=O)Nc1ccccc1-c1nc2ccccc2n(CC(=O)c2ccc(C)cc2)c1=O | 5%
COc1cc(CN2CCN(c3ccccc3F)CC2)c([N+](=O)[O-])cc1OC | -16%
CCOC(=O)/C(C#N)=N/Nc1ccc(S(=O)(=O)Nc2cc(OC)nc(OC)n2)cc1 | -19%
CNc1nnc(-c2cc3cc(Cl)ccc3oc2=O)s1 | 2%
Cc1cc(C(=O)OCC(=O)NC2CC2)c2ccccc2n1 | 15%
COC(=O)c1ccc(C(C(=O)NC2CCCCC2)N(C(=O)Cc2cccs2)C2CC2)cc1 (configuration not stated) | 8%
CCOc1cc(C)c(Cl)cc1S(=O)(=O)N(C)C | -4%
Cc1ccc(C)c(OCCC(=O)Nc2cccc(S(=O)(=O)N3CCCCC3)c2)c1 | -6%
CCOP(=O)(OCC)c1nc(-c2ccc(F)cc2)oc1NCc1ccccc1 | -21%
CC(C)(C)c1cc(C(=O)CCN2CCOCC2)cc(C(C)(C)C)c1O | 50µM*
Cc1cccn2c(=O)c3cc(C(=O)NCc4ccc(F)cc4)c(=N)n(CCCN4CCOCC4)c3nc12 | 6%
COc1ccc(-c2[nH]ncc2CNCCn2cccn2)c(F)c1 | -8%
O=C(C1COc2ccccc2O1)N(Cc1cccnc1)c1nc2c(Cl)cccc2s1 (configuration not stated) | -3%
CC(/C=N/NC(=O)c1ccccn1)=C\c1ccco1 | -10%
CCCOc1ccc(C(O)(CCC)CCN2CCCCC2)cc1 (configuration not stated) | -9%
CN(Cc1ccc(Cl)cc1)C(=O)c1cc(S(=O)(=O)N2CCOCC2)ccc1N1CCCC1 | -10%
C=CC(=O)Nc1sc2c(c1C(N)=O)CCCC2 | 9%
O=C(NCc1nnc(SCC(=O)N2CCN(c3ccccc3)CC2)o1)c1c(F)cccc1Cl | 6%
O=C1C(Cc2c[nH]c3ccccc23)NC(=S)N1C1CCCCC1 (configuration not stated) | -8%
CCCSc1nc(C)c(C(C)=O)cc1C#N | -15%
Cc1cc(=O)oc2cc(OC(=O)CCCCCN3C(=O)c4ccccc4C3=O)ccc12 | -7%
Cc1ccc(-n2nnc3c(SCC(=O)NCc4ccco4)ncnc32)cc1 | 7%
CN(CC(=O)Nc1ccccc1Br)C(=O)CCc1ccccc1 | 4%
Fc1ccc(-n2c(-c3ccco3)nc3nc4ccccc4nc32)cc1 | -9%
CCCCCCOc1ccc(N2C(=O)CC(NCCc3ccc(S(N)(=O)=O)cc3)C2=O)cc1 (configuration not stated) | -12%
CCc1ccc(N2CC(C(=O)N/N=C/c3ccccc3OC)CC2=O)cc1 (configuration not stated) | -7%
Cc1cc(C)c(C#N)c(SCc2ccc3c(c2)OCO3)n1 | 11%
Cc1ccccc1-c1ccc2ncnc(N3CCNCC3)c2c1 | 50µM*
COC(=O)c1ccn(CSc2c(F)c(F)cc(F)c2F)n1 | 0%
CCCCNc1cc(Cl)nc(N)n1 | 12%
O=C(COc1ccccc1Cl)Nc1ccc2nc(SCC(=O)N3CCOCC3)sc2c1 | 4%
CCOCCn1ccc2c(OCC(=O)Nc3ccc(OC)c(OC)c3)cccc2c1=O | 28%
CCc1nc2ccccc2n1CC(O)COCC1CC=CCC1 (configuration not stated) | -3%
COC(=O)Nc1nnc(Cc2ccccc2)s1 | 11%
Cc1csc(=O)n1CCC(=O)OCC(=O)Nc1ccc(S(N)(=O)=O)cc1 | 2%
O=S(=O)(Nc1ncnc2sc3c(c12)CCC3)c1ccc(Cl)s1 | -6%
O=C(C1CC1)n1cc(C(=S)N2CCOCC2)c2ccccc21 | 5%
O=C(NCc1ccccc1)c1onc(CSc2nc3ccccc3[nH]2)c1C(=O)NCc1ccccc1 | 12%
CCCCCCCC(=O)Nc1cc(C(=O)NCCC)ccc1N1CCC2(CC1)CC(c1cccc(Br)c1)=NO2 | -2%
COC(=O)c1sccc1NN1C(=O)c2ccccc2C1=O | -17%
CCOC(=O)c1ccc(NC(=O)c2ncn(-c3ccccc3)n2)cc1 | 5%
Cc1ccc(OCC(=O)NNc2c3ccccc3nc3ccccc23)cc1 | -4%
CSCCC(C(=O)OCC(=O)c1ccc(C)c(C)c1)N1C(=O)c2cc(Cl)c(Cl)cc2C1=O (configuration not stated) | 6%
Following part:
SMILES | VDR inhibitor
CC(C)(C)[C@@H]1COC(=O)[C@@H](Cc2ccc(F)cc2)CC/C=C\C[C@@H](CC(=O)N(CCO)Cc2ccccc2)C(=O)N1 | 11%
COc1ccccc1NC(=O)C(C)NS(=O)(=O)c1ccc(Cl)cc1 (configuration not stated) | 1%
COc1ccc(NC(=O)Nc2cccc3c2O[C@H](CN(C)S(=O)(=O)c2ccc(OC)cc2)[C@@H](C)CN([C@H](C)CO)C3=O)cc1 | -3%
COC(=O)c1c(-c2ccc(OC)cc2)oc2ccc(-c3cc(OC)c(OC)c(OC)c3)cc12 | 1%
Cc1c(Cl)cnc(NC(=O)COC(=O)C2CC3CCCC(C2)C3=O)c1Cl (configuration not stated) | -1%
C=CCn1nc2ccccc2c1OC | 6%
Cc1ccc(-c2nc(C(=O)N3CCN(c4ccccc4)CC3)c3n2CCCCC3)cc1 | 1%
N#Cc1cccc(Oc2ccc(S(=O)(=O)N3CCCC3)cn2)c1 | -5%
NCCCCc1ccc2ccc3cccc4ccc1c2c34 | 4%
CCN1CCN(c2c(Cl)cccc2NC(=O)c2ccc(Br)o2)CC1 | 8%
Cc1ccc(N(CC(=O)Nc2ccc(OC(F)(F)F)cc2)S(=O)(=O)c2c(C)noc2C)cc1 | 0%
CCOCCCn1c(=N)c(C(=O)NCc2ccc3c(c2)OCO3)cc2c(=O)n3cccc(C)c3nc21 | 17%
COc1ccc(NC(=O)Nc2ccc3c(c2)C(=O)N([C@H](C)CO)C[C@H](C)[C@@H](CN(C)C(=O)Nc2ccc(C(F)(F)F)cc2)O3)cc1 | -11%
CCN(c1ccc2c(c1)OCO2)S(=O)(=O)c1cc(Br)cc2c1N(C(C)=O)CC2 | 8%
O=C(/C=C/c1ccc2c(c1)OCO2)NCCSCc1c(Cl)cccc1Cl | -15%
Cc1cc2c(cc1C)N[C@]1(C[C@H]3CCCC(=O)N4CC[C@@H](C1)[C@@H]34)C(=NC(C)(C)CC(C)(C)C)N2 | -11%
COc1ccc2nc(NC(=O)CN3CCN(C)CC3)sc2c1 | -4%
CC(C)Oc1ccc2c(=O)c3cc(C(=O)O)ccc3oc2c1 | -6%
COC(=O)c1ccc(-c2cc(C(=O)O)c3cc4c(cc3n2)OCCO4)cc1 | -2%
Cc1cc(NC(=O)c2cnn3cccnc23)no1 | 8%

3 of the compounds above, as labelled records.
NCCCCc1ccc2ccc3cccc4ccc1c2c34
- VDR inhibitor = 4%
CCN1CCN(c2c(Cl)cccc2NC(=O)c2ccc(Br)o2)CC1
- VDR inhibitor = 8%
Cc1ccc(N(CC(=O)Nc2ccc(OC(F)(F)F)cc2)S(=O)(=O)c2c(C)noc2C)cc1
- VDR inhibitor = 0%

Next records follow:
SMILES | VDR inhibitor
Cc1ccc2c(CNC3CCCC3)c(C(=O)O)n(Cc3ccc(F)cc3)c2c1 | 3%
CC(C)c1ccc(Nc2nc(NCc3ccco3)nc(N3CCOCC3)n2)cc1 | -12%
c1ccc(Cn2nnc3c(N4CCCCCC4)ncnc32)cc1 | -9%
CCCCNC(=O)c1ccc(NC(C)=O)c(Cl)c1 | -11%
CC(C)c1nn2c(=O)cc(COC(=O)c3ccccc3NC(=O)C3CCCCC3)nc2s1 | 13%
CC1(OC(=O)CCc2ccccc2)C(=O)C=C2C=C(c3ccc(C#N)cc3)N(CCN3CCOCC3)C=C2C1=O (configuration not stated) | -22%
CCOC(=O)C(C)n1cnc2scc(-c3ccc(C)c(C)c3)c2c1=O (configuration not stated) | -23%
O=C(COC(=O)CC1CC2CCC1C2)Nc1ccccc1[N+](=O)[O-] (configuration not stated) | 3%
COc1ccc(C2(c3ccc(OC)cc3)NC(=O)N(CC(=O)Nc3ccc(C(N)=O)cc3)C2=O)cc1 | -3%
O=C1CCCc2ccccc2N1Cc1ccc(F)cc1 | -21%
CC(C)[C@@H](NC(=O)OC(C)(C)C)C(=O)NCC1CCC(C(=O)N[C@@H](Cc2ccccc2)C(=O)O)CC1 (some centres not stated) | -5%
O=c1c(-c2cc(F)cc(F)c2)nc2cnc(Oc3ccccc3)nc2n1C[C@H]1CCCO1 | -4%
COc1cc(C)c(C)cc1S(=O)(=O)N1CCN(Cc2ccc3c(c2)OCO3)CC1 | -23%
Cc1cc(C)c2sc(N(CCN(C)C)C(=O)c3cc(Cl)sc3Cl)nc2c1 | 5%
Cc1cccc(C(C)C)c1NC(=O)c1ccc(CN(c2ccccc2)S(=O)(=O)c2ccccc2)cc1 | -8%
COc1ccccc1NC(=O)Cc1ccsc1 | 5%
COc1ccc2c(c1OC)C(=O)OC2Nc1nc(-c2cccc([N+](=O)[O-])c2)cs1 (configuration not stated) | -18%
CCOc1cc(/C=N/NC(=O)c2c(-c3ccccc3)noc2C)ccc1O | 11%
Cc1cccc(OCCC(=O)NCC(=O)Nc2c(C)cccc2C)c1 | -8%
Cn1nc([N+](=O)[O-])nc1Oc1ccccc1 | -1%
CC(C)c1nc(Cl)c(C#N)c2c1CCCC2 | -3%
CCc1ccc2c(c1)c(=O)c(C(=O)c1ccccc1)cn2CC(=O)Nc1ccc(C)c(Cl)c1 | -19%
O=C1COc2ccc(S(=O)(=O)N3CCN(c4cccc(C(F)(F)F)c4)CC3)cc2N1 | 4%
Cc1ccc(S(=O)(=O)N2CCN(C)CC2)cc1C(=O)NC1CCCCC1 | -4%
Cc1onc(-c2ccccc2)c1C(=O)NC(=S)NNC(=O)c1ccc(O)cc1O | 5%
CCOc1ccccc1NC(=O)c1cn(C2CCCCC2)c(=O)c2c1c1ccccc1n2C | 7%
CC(=O)NC(Cc1ccc(F)cc1)C(=O)NC1CCN(S(=O)(=O)c2ccccc2)CC1 (configuration not stated) | -7%
COc1cccc(CNC(=O)c2ccc(CSc3nc4ccncc4n3Cc3cccc(C)c3)cc2)c1 | 4%
CCc1noc(C)c1C(=O)OC(C)C(=O)NCc1ccc(OC)cc1 (configuration not stated) | -5%
COc1ccccc1N1CCN(C(c2ccccc2Cl)c2nnnn2C(C)(C)C)CC1 (configuration not stated) | -5%
O=c1[nH]c2ccccc2nc1-c1cccs1 | 5%
Cc1ccc(SCC(=O)Nc2nnc(C(C)(C)C)s2)cc1 | 4%
COc1cc(OC)cc(C(=O)NC(C(=O)NCCN(C)C)C23CC4CC(CC(C4)C2)C3)c1 (configuration not stated) | 8%
CCc1ccc(NC(=O)/C(C#N)=C/c2cn(CC(=O)O)c3ccccc23)cc1 | 4%
Cc1ccsc1/C=N/Nc1nc(Cl)c(Cl)cc1Cl | 6%
C/C=C/C1=CC(=O)C[C@H](c2ccc3c(c2)OCO3)C1 | ?
Cc1ccc(OCC(=O)OC(C)C(=O)NC2CCCCC2C)cc1C (configuration not stated) | -10%
Cc1ccc(C(=O)OCC(=O)Nc2cc(C(C)(C)C)nn2-c2ccccc2)c(O)c1 | -20%
Cn1c(SCC(=O)N2CCCCC2)nc2cccnc21 | 0%
O=[N+]([O-])c1cn(Cc2ccccc2)cn1 | -1%
Cc1cc(C)cc(C(=O)NCC(=O)OCC(=O)NCC(F)(F)F)c1 | 3%
O=C(Nc1ccc(Cl)cn1)c1ccc(-c2cc(Cl)ccc2Cl)o1 | 3%
Cc1ccc(Nc2cc(C)nn2-c2nc(C)cc(C)n2)cc1 | 6%

Ordered by heavy-atom count (highest first): some entries from above.
SMILES | VDR inhibitor
COC(=O)c1ccc(C(C(=O)NC2CCCCC2)N(C(=O)Cc2cccs2)C2CC2)cc1 (configuration not stated) | 8%
CCCn1c(O)c2ccc(C(=O)N=NC(=O)c3cccnc3)cc2c1O | 13%
CCOC(=O)C(C)n1cnc2scc(-c3ccc(C)c(C)c3)c2c1=O (configuration not stated) | -23%
N#Cc1cccc(Oc2ccc(S(=O)(=O)N3CCCC3)cn2)c1 | -5%
O=C(C1CC1)n1cc(C(=S)N2CCOCC2)c2ccccc21 | 5%
Cc1cc(C(=O)OCC(=O)NC2CC2)c2ccccc2n1 | 15%
Cc1cc(NC(=O)c2cnn3cccnc23)no1 | 8%
